Source: PubChem BioAssay (several laboratories)
PABP FP inh = PABP poly(A) RNA binding inhibitors, primary screen, biochemical, fluorescence polarization, uHTS | Polyadenylate-binding protein 1 (Homo sapiens), P11940 | 1% of 290,000 active | inhibition, % at 35 µM;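 active = 50% or more with normal probe brightness, or confirmed in later tests; inconclusive = above 50% with abnormal brightness, or retests that disagree; inactive = below 50% or failed in later tests; about a fifth of its hits are not listed in these tables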;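 note: calls also rest on retests at 20 µM and on dose response follow-up; controls were probe without protein and protein plus probe with vehicle; some compounds called inactive have numbers as strong as hits; many hits fall short of the cut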
Target sequence (P11940 whole entry, looked up): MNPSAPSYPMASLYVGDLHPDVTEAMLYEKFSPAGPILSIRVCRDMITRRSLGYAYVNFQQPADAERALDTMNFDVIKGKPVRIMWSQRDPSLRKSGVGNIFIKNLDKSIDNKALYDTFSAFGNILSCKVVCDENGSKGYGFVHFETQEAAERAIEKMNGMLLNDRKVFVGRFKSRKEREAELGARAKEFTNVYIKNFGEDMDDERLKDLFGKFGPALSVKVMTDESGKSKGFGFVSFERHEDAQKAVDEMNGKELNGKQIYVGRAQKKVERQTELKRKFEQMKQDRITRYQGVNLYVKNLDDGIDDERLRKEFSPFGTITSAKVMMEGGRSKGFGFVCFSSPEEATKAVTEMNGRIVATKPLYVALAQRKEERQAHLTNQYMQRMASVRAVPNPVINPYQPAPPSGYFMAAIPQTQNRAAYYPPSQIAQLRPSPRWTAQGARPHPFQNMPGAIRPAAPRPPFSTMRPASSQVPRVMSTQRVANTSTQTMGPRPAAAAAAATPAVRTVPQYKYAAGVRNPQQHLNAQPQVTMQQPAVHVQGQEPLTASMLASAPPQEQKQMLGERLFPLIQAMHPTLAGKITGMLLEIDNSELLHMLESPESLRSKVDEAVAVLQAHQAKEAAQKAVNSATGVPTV
Rce1 inhib = yeast Rce1p protease inhibitors, primary screen, biochemical, fluorescence, cell-free homogeneous. yeast membranes, quenched prenylated peptide cleavage fluorescence. calls only. 0.27% of 290,000 active. AID 2563, 2010;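 active = fall in fluorescence gain of 50% or more versus controls, with final raw signal at or below 3038400; inconclusive = same 50% fall but final raw signal above 3038400; inactive = fall in fluorescence gain under 50%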;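 note: plate controls were neutral control wells for no effect and wells lacking membranes for full effect; tested at 10 µM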
Target sequence (Q03530 whole entry, looked up): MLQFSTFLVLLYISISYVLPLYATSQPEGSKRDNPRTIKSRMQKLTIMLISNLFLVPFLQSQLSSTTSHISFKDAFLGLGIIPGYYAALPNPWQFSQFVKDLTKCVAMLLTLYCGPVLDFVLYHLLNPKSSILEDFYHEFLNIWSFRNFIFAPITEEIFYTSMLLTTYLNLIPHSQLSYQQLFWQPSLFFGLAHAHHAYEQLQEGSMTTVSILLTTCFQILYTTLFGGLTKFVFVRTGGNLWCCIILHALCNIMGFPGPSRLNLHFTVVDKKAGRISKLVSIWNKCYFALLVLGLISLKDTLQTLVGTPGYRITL
HIV Env fusion = inhibitors of HIV-1 Env-driven cell-cell fusion, primary screen, HeLa-JRFL effector, CEM21 target cells, luciferase | inhibition, % at 12.3 µM | 1.1% of 360,000 active;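 active = mean replicate inhibition score of at least 50 and every replicate individually at or above 50; inconclusive = only one of the two criteria met; inactive = mean below 50 and not all replicates reaching 50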;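 note: 0% = plate neutral controls and 100% = maraviroc near 300 nM; one replicate is shown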
eIF4H FP inh = human eIF4H binding inhibitors, primary screen, translation initiation inhibitor project, biochemical, uHTS, fluorescence polarization. Eukaryotic translation initiation factor 4H (Homo sapiens), Q15056. eIF4H fluorescence polarization binding assay. inhibition, % at 35 µM. 0.94% of 290,000 active. AID 2012, 2009;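 active = 50% or more with normal probe brightness, or confirmed in later tests; inconclusive = above 50% with abnormal brightness, or retests that disagree; inactive = below 50% or failed in later tests; about a fifth of its hits are not listed in these tables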;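 note: calls also rest on retests at 20 µM and on dose response follow-up; 0% = protein and probe with vehicle and 100% = probe without protein; strong numbers were not always called active; many hits fall short of the cut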
UUG fidelity = modulators of yeast start codon fidelity, primary screen, whole organism, S. cerevisiae, single point, plate reader | 0.13% of 350,000 active | AID 602363, 2012 | S. cerevisiae UUG-firefly luciferase reporter, luminescence/redox ratio | activity score, % at 18.7 µM;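 active = replicate mean at a twofold rise or more, about +100% in these data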;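 note: firefly luciferase made from a UUG start codon reports start codon fidelity; reporter light over untreated wells divided by growth signal over untreated wells; some hits fall short of that in this replicate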
CSC inhib = cancer stem cell viability inhibitors, primary screen, luminescence. inhibition, % at 7.5 µM. cancer stem cell-like cells viability. 1.1% of 300,000 active;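 active = mean at 75% or more and at least half the replicates too; inconclusive = mean and replicates disagree; tested in HMLE shEcad cells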;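 note: 0% = median of negative and 100% = median of positive control wells; the first replicate is given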
MT1-MMP act inh = blockers of MT1-MMP proenzyme processing, primary screen, HT1080 RFP-PRO-GFP cells, GFP/RFP fluorescence. 0.061% of 360,000 active. GFP/RFP ratio fluorescence, overnight; percent of plate control window, DMSO zero. GFP/RFP ratio change, % at 20 µM. AID 651647, 2012. Matrix metalloproteinase-14 (Homo sapiens), P50281;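 active = GFP/RFP ratio change of at least 30% with cell ATP level not reduced by more than half and red fluorescence within 50% of control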; note: strong numbers were not always called active
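Assay system: HT1080 RFP-PRO-GFP cells | Dosing: 20 µM single dose, 1% DMSO | Incubation: Cells overnight before dosing, compound overnight, 37 °C, 5% CO2 | Evaluation: GFP/RFP fluorescence ratio | Control set: DMSO-only wells and HT1080 RFP-L50D-GFP cell wells as references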
eIF4H FP inh retest = further read-out of eIF4H FP inh, marked with its call; inhibition, %; compound at 20 µM; confirmation average;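 mean of two retest wells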
PABP FP inh retest = recorded beside PABP FP inh, whose call it bears; inhibition, %; compound at 20 µM; confirmation repeats;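 mean of two retest wells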
MT1-MMP act inh RFP = recorded beside MT1-MMP act inh, whose call it bears; RFP signal change, %; measured here: RFP expression control read;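 0 = vehicle wells; hits needed this value within 50% of zero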
Starred values were filed as active, the others as inactive; i = inactive; ? = inconclusive; · = no result given; & = joins results of further samples; [ ] = dose if it differs, or a comment. Some of the compounds tested, so the mix of outcomes need not match the whole.

SMILES | PABP FP inh | Rce1 inhib | HIV Env fusion | eIF4H FP inh | UUG fidelity | CSC inhib | MT1-MMP act inh | MT1-MMP act inh RFP | others
CCCOc1ccc(CNC(=S)NCc2ccc(OC(C)C)cc2)cc1 | 4 | i | · | -10 | · | -3 | 3 | 2
CCOc1ccc(N2C(=O)CC(SC(=NC)Nc3cccc(F)c3)C2=O)cc1 (stereo not drawn) | -2 | i | · | -11 | 1 | 9 | 4 | -2
COc1ccc(Nc2nc(C)cc(=O)[nH]2)cc1 | 3 | · | 8 | 0 | -3 | 3 | -4 | 0
CCCOc1ccc(N2CC(C(=O)NCCc3ccc(OC)c(OC)c3)CC2=O)cc1 (stereo not drawn) | -1 | i | 0 | -3 | · | 0 | 2 | 0
CC(=O)C1=C(c2ccccc2)NC(=O)NC1c1ccc2c(c1)OCO2 (stereo not drawn) | 5 | i | -9 | -6 | 1 | · | -3 | -2
Cc1c(NC(=O)c2ccccc2N)cccc1C(=O)O | 12 | i | -95 | 3 | -14 | -18 | 4 | 2
COCCn1c(SCC(=O)Nc2cccc(NC(C)=O)c2)nc2c([nH]c3ccccc32)c1=O | 9 | i | -16 | -4 | -16 | 17 | -3 | 2
Cc1c(C(=O)Nc2c(F)cccc2F)sc2ncn(CC(=O)N3CCCCC3)c(=O)c12 | -1 | i | -8 | -3 | -16 | -13 | 1 | 0
NS(=O)(=O)c1ccc(N/N=C/c2cn(-c3ccccc3)nc2-c2cccs2)c([N+](=O)[O-])c1 | -2 | i | 36 | -9 | -19 | 96* | 24 | -2
Cc1ccccc1NC(=O)CCN1C(=O)c2ccccc2C1=O | -14 | i | -15 | -10 | -17 | -2 | 1 | 0
CSc1nc(O)c(C(c2ccccc2)c2c(O)nc(SC)[nH]c2=O)c(=O)[nH]1 | -4 | i | -7 | -17 | -16 | -10 | -4 | 2
Cc1ccc2nc(-c3ccccc3)c(Cc3ccccc3C(F)(F)F)n2c1 | · | · | -1 | · | -7 | · | -5 | -2
CCCCCn1c(SCC(=O)c2ccccc2)nc2cc(C(=O)NCc3ccco3)ccc2c1=O | 4 | · | 2 | -11 | -13 | · | 2 | 0
O=C(Nc1ccc(F)cc1)c1ccc(Cn2cnnn2)cc1 | 78 | i | 8 | 2 | · | -3 | 4 | -3 | eIF4H FP inh retest=17;PABP FP inh retest=40
CN(C)C(=O)NC(NC(=S)Nc1ccccc1)C(Cl)(Cl)Cl (stereo not drawn) | 12 | i | 25 | 1 | -3 | 2 | -4 | 0
O=c1cc(-c2ccccc2)c2ccccc2[nH]1 | -2 | i | -287 | -5 | -14 | 11 | 3 | 3
COc1ccc2[nH]c(=O)c(CN(C(C)=O)c3ccc(C)c(C)c3)cc2c1 | -2 | i | 8 | 8 | -3 | -15 | -3 | -4
CN(C)c1ccc(N/C=C/C(=O)C(C)(C)C)cc1 | -9 | i | · | 9 | -13 | 0 | -9 | 7
CC(Sc1nnc2ccccn12)C(=O)Nc1ccc(N2CCOCC2)cc1 (stereo not drawn) | · | · | -6 | · | -14 | -13 | 3 | 0
C[C@H](CO)N1C[C@H](C)[C@@H](CN(C)S(=O)(=O)c2ccc(Oc3ccccc3)nc2)OCc2cn(nn2)CCCC1=O | · | · | -21[16.7 µM] | · | -3 | · | 1 | 2
CCCCNC(=O)C1(C)CCCCN1C(=O)c1ccc(F)c(C)c1 (stereo not drawn) | · | · | 3 | · | 4 | · | 1 | 6
CCOC(=O)[C@H]1[C@H]2COc3ccc(OC)cc3[C@@H]2N2C(=O)CN(C)C(=O)[C@@]12C | · | · | 1 | · | -3 | -17 | 1 | 2
COc1cc(NC(=O)Nc2cccn3nc(COCCO)nc23)cc(OC)c1OC | · | · | -6 | · | 2 | · | 1 | 7
COc1cccc2sc(N(CCCN(C)C)C(=O)COc3ccc(Cl)cc3)nc12 | 4 | i | -1 | 2 | · | -7 | 2 | 4
COCCNc1nc(=S)[nH]c2cc(OC)c(OC)cc12 | 15 | i | -20 | 0 | -20 | 2 | 1 | 2
CCc1ccc2ncc(S(=O)(=O)c3ccc(C)c(C)c3)c(N3CCCC3)c2c1 | -19 | i | · | -8 | -3 | 10 | -9 | -8
CC(C)(C)c1ccc(OCCOc2ccc(C(C)(C)C)cc2NC=O)c(NC=O)c1 | -3 | i | 41 | 5 | -9 | · | -1 | -25
COc1ccccc1OCCCC(=O)Nc1ccc([N+](=O)[O-])cc1Br | 3 | · | -3 | -8 | -2 | 7 | 0 | -6
CCCCOC(=O)C1=C(C)Nc2ncnn2C1c1cc(OC)c(OC)cc1OC (stereo not drawn) | 7 | i | -22 | 1 | -19 | -16 | 7 | 6
O=C(c1cnn2c(C(F)(F)F)cc(-c3ccco3)nc12)N1CCCc2ccccc21 | 5 | i | · | -6 | -11 | -11 | 9 | 6

An excerpt from above in order of SMILES length, lowest first:
SMILES | PABP FP inh | Rce1 inhib | HIV Env fusion | eIF4H FP inh | UUG fidelity | CSC inhib | MT1-MMP act inh | MT1-MMP act inh RFP | others
Cc1c(NC(=O)c2ccccc2N)cccc1C(=O)O | 12 | i | -95 | 3 | -14 | -18 | 4 | 2
CN(C)c1ccc(N/C=C/C(=O)C(C)(C)C)cc1 | -9 | i | · | 9 | -13 | 0 | -9 | 7
O=C(Nc1ccc(F)cc1)c1ccc(Cn2cnnn2)cc1 | 78 | i | 8 | 2 | · | -3 | 4 | -3 | eIF4H FP inh retest=17;PABP FP inh retest=40
CCCOc1ccc(CNC(=S)NCc2ccc(OC(C)C)cc2)cc1 | 4 | i | · | -10 | · | -3 | 3 | 2
CCCCNC(=O)C1(C)CCCCN1C(=O)c1ccc(F)c(C)c1 (stereo not drawn) | · | · | 3 | · | 4 | · | 1 | 6
Cc1ccc2nc(-c3ccccc3)c(Cc3ccccc3C(F)(F)F)n2c1 | · | · | -1 | · | -7 | · | -5 | -2
CCCCOC(=O)C1=C(C)Nc2ncnn2C1c1cc(OC)c(OC)cc1OC (stereo not drawn) | 7 | i | -22 | 1 | -19 | -16 | 7 | 6
COc1ccc2[nH]c(=O)c(CN(C(C)=O)c3ccc(C)c(C)c3)cc2c1 | -2 | i | 8 | 8 | -3 | -15 | -3 | -4
Cc1c(C(=O)Nc2c(F)cccc2F)sc2ncn(CC(=O)N3CCCCC3)c(=O)c12 | -1 | i | -8 | -3 | -16 | -13 | 1 | 0

Next structures:
SMILES | PABP FP inh | Rce1 inhib | HIV Env fusion | eIF4H FP inh | UUG fidelity | CSC inhib | MT1-MMP act inh | MT1-MMP act inh RFP | others
Cc1ccc2cc(C#N)c(SCc3nnc(-c4ccccc4[N+](=O)[O-])o3)nc2c1 | -1 | i | · | 3 | -8 | 12 | -5 | 1
Cc1cccc(N(CC(=O)NC2CC3CCC2C3)S(=O)(=O)c2ccccc2)c1 (stereo not drawn) | 0 | i | 5 | 0 | 4 | -10 | 0 | 2
COc1cc(O)cc2c1[C@@H]1Oc3c(ccc(O)c3CC=C(C)C)[C@@H]1CO2 | · | i | · | · | -3 | 40 | -6 | -16
O=C1CC(N2CCN(c3ccccc3Cl)CC2)C(=O)N1c1ccccc1 (stereo not drawn) | -2 | i | · | -10 | -13 | 1 | 1 | -2
c1ccc(-n2nc3ccccc3n2)cc1 | 1 | i | -46 | 4 | · | -8 | -2 | -2
Cc1ccc(S(=O)(=O)N(C)C)cc1NC(=O)COC(=O)COc1ccc2c(c1)CCC2 | · | i | -27 | · | -1 | 1 | 2 | 4
Cc1nc2ccccc2n1-c1nc(-c2ccco2)cc(C(F)(F)F)n1 | -11 | i | -42 | -11 | -15 | 149* | 7 | -19
Cc1ccc(S(=O)(=O)CC(=O)c2ccccc2[N+](=O)[O-])cc1 | -15 | i | 7 | -13 | -7 | -14 | -1 | -1
CC(=O)Nc1cccc(-c2ccnc3c2CC(C)(C(=O)Nc2ccc(Cl)c(C(F)(F)F)c2)O3)c1 (stereo not drawn) | · | · | -113 | · | -25 | · | -18 | -21
O=C(NCc1ccon1)C1CCC(=O)N(CCc2cccc(F)c2)C1 (stereo not drawn) | -2 | i | -13 | 4 | -15 | · | 1 | 1
CN(C)CCNc1c(N)c(=O)oc2ccccc12 | 7 | i | -1 | -5 | · | -13 | 3 | 0
Cc1ccc(N2C(=O)CN(Cc3ccccc3)C2=S)cc1C | 13 | i | 3 | 2 | -12 | -6 | -7 | -1
CC(=O)Nc1cccc(-c2csc(C(O)c3ccc(F)c(F)c3)n2)c1 (stereo not drawn) | · | · | -12 | · | -3 | · | 6 | -3
C=CC(COCc1ccccc1)N(C(=O)OC(C)(C)C)S(=O)(=O)c1ccccc1Br (stereo not drawn) | -4 | i | ? | -8 | -14 | 23 | -4 | -7
O=C(COC(=O)Cc1ccc(Br)cc1)NCc1ccc(F)cc1 | 2 | i | -7 | -6 | · | 3 | 0 | 0
O=C(Nc1ccccc1)C1=C[C@H](c2ccc(C(F)(F)F)cc2)C[C@H](OCCCCO)O1 | · | i | -22[16.7 µM] | · | -3&-13 | 27 | 3 | -1
C/C=C\C(=O)Nc1cccc(C2=NOC3(C2)C[C@@H](C(N)=O)N(C(=O)c2ccccc2)C3)c1 (stereo partly drawn) | 7 | i | -2 | 6 | 1 | -11 | 1 | 4
O=Cc1c(NCc2ccc(F)cc2)c2ccccc2[nH]c1=O | 2 | i | 2 | 0 | -22 | 6 | 4 | 4
CCN(CC)S(=O)(=O)c1cccc(NC(=O)CC2CCCC2)c1 | 10 | i | -16 | 9 | -2 | -4 | 4 | 2
CCOc1cccc(-c2nnc(SCC(=O)Nc3cccc(OC)c3)n2N)c1 | -2 | i | -24 | 2 | -11 | · | 2 | -1
Cc1ccccc1C(=O)NC(=S)NCCc1ccccc1 | 0 | i | 3 | 1 | · | 8 | 3 | 2
CC(=O)Nc1ccc(S(=O)(=O)Nc2ccccc2C(=O)N2CCCCC2)cc1 | -7 | i | -3 | 0 | -6 | -14 | -1 | 2
Cc1[nH]c2ccc(F)cc2c1CCN(Cc1ccncc1)C(=S)Nc1cccc(F)c1 | -3 | i | 0 | -2 | -18 | 5 | 2 | -6
Cc1ccc2c(c1)N(CCC(=O)NCc1cccs1)C(=O)C(C)O2 (stereo not drawn) | 6 | i | -60 | -13 | -9 | -6 | -3 | 0
COc1ccc2nc(NC(=O)c3ccoc3C)sc2c1 | -5 | i | · | -17 | -18 | 70 | -1 | -4
Oc1ccc2ccccc2c1CN1CCN(c2ccccc2F)CC1 | -13 | i | 21 | -3 | 3 | · | -1 | -2
O=C1COc2ccc(C(=O)COC(=O)c3ccc(S(=O)(=O)C(F)F)cc3)cc2N1 | · | i | -14 | · | -17 | 2 | 2 | -1
